MLL AF4-AF9 inh: blocks AF4 peptide binding to human AF9; AlphaScreen, biotin-AF4 peptide binding to FLAG-AF9; P42568; inhibition, % at 10 µM; hit rate 0.47% among 350,000; AID 651704;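 active = every replicate reaching a set inhibition limit, whatever the replicate mean, cut at about 25% in these data; inconclusive = mean inhibition reaches that limit but some replicates miss it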;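 also: 0% = plate neutral control median and 100% = total signal loss; the record names both 10 and 1 µM as test concentration; the first replicate is given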
E coli growth: E. coli growth inhibition; Escherichia coli growth, OD600, 23 h; stronger effect = lower value; OD600 absorbance (test concentration not listed); hit rate 0.21% among 330,000; AID 1053175;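 active = OD600 absorbance below the run mean of sample wells minus 3.6 SD, in any replicate, cut at about 0.56 in these data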;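 also: stock transfer was 300 nL into about 60 µL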
Vif A3G: inhibitors of Vif binding to APOBEC3G peptide, primary screen, biochemical, TR-FRET, GST-Vif 1-94, biotin-A3G peptide, dose response retest (AID 1117319); TR-FRET GST-Vif / biotin-A3G peptide binding; higher % means a stronger effect; test concentration not given here; strong numbers were not always called active; inhibition, %, or IC50 in µM where a hit was titrated; hit rate 0.57% among 260,000;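 active = above the screen mean plus three standard deviations and confirmed in dose response; inconclusive = results disagree or hit not tested in dose response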;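 also: Vif residues 1-94 fused to GST binding biotinylated APOBEC3G peptide 110-148; 0% = full assay without inhibitor and 100% = GST in place of GST-Vif; retest series ran down from 100 µM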
FGF22 binding: binders of recombinant human FGF22 by thermal shift | SYPRO orange fluorescence; percent of sucrose octasulfate shift, DMSO zero | AID 651658 | hit rate 1.5% among 340,000 | Q9HCT0 | calls only at 9.99 µM;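 active = melting point raised past a set limit in the mean and every replicate; inconclusive = no clear call; three in four hits are not shown here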
Target sequence (Q9HCT0 whole entry, looked up): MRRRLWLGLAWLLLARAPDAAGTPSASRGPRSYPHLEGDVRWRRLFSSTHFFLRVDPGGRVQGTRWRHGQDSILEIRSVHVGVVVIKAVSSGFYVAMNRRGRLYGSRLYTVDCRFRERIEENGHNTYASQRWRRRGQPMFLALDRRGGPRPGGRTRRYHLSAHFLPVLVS
RanGTP-Impb inh: inhibitors of RanGTP-importin-beta interaction, primary screen, biochemical, FRET, CFP-Ran, YFP-importin-beta, homogeneous | hit rate 1.1% among 300,000 | cell-free CFP-Ran/YFP-importin-beta FRET ratio | inhibition, % (no concentration beside the values);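 active = most replicates above 15%; inconclusive = exactly half above 15%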;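 also: 0% = DMSO wells and 100% = Ran loaded with GDP instead of GTP; wells of about 40 µL received 100 nL stock; the first replicate is given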
UCH37 inh: blocks the human deubiquitinase UCH37. purified proteasome/UCH37, Ub-AMC cleavage fluorescence. Q9Y5K5. hit rate 0.33% among 330,000. inhibition, % (no concentration beside the values);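 active = mean of two replicates above 20%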;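 also: 0% = compound-free wells with enzyme and 100% = wells lacking proteasome; stock transfer was 100 nL into about 20 µL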
Target sequence (Q9Y5K5 whole entry, looked up): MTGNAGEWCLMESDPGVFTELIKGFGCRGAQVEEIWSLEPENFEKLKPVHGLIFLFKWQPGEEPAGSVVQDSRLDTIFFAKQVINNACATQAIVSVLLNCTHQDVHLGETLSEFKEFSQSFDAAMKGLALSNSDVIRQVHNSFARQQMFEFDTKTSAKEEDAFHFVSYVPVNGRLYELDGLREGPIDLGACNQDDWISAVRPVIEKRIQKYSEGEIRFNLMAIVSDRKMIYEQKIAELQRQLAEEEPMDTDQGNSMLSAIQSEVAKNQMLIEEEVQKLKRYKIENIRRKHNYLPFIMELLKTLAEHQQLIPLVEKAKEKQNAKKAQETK
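Material: Human UCH37 enzyme supplied as purified proteasome complex | Schedule: 30 min preincubation with enzyme, 25 min cleavage at room temperature | Detection: AMC fluorescence 355/460 nm | Measure: % inhibition of Ub-AMC cleavage fluorescence | Controls: Wells without proteasome as full block, compound-free enzyme plus substrate as uninhibited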
HNF4A DNA FP: change in binding of human HNF4 alpha to DNA. P41235. HNF4a-FITC DNA binding, fluorescence polarization, 1 h. activity change, % at 10 µM. hit rate 0.3% among 360,000; in the data active = activity change above about 30%, passing the limit was not always enough;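 also: controls were the assay level and a saturating level of protein; the project sought stronger binding though the title names inhibitors; some compounds called inactive have numbers as strong as hits; positive values seem to mean higher polarization but the record does not say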
Target sequence (P41235 whole entry, looked up): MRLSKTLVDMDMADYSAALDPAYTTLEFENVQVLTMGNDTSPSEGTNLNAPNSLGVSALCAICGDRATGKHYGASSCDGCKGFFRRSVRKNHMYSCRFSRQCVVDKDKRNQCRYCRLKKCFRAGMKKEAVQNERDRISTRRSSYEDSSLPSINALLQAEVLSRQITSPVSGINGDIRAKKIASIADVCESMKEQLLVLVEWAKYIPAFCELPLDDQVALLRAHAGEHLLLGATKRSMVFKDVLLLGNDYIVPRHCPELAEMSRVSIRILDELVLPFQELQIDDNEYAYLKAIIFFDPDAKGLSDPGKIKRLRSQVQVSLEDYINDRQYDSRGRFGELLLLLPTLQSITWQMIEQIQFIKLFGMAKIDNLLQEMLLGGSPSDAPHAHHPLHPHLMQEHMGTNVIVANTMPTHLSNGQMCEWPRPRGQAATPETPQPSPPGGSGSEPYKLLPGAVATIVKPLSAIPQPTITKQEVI
Active calls of the source: *; i = inactive; ? = inconclusive; · = not tested or not shown; & = joins results of further samples. The list is partial, so the mix of outcomes need not match the whole.

SMILES	MLL AF4-AF9 inh	E coli growth	Vif A3G	FGF22 binding	RanGTP-Impb inh	UCH37 inh	HNF4A DNA FP
O=C(C1CCCN(Cc2ccc([N+](=O)[O-])cc2)C1)N1CCCCC1 (centres undefined)	1.0	0.62	-3%	i	-2.3	4.9	-0.8
Cn1nnnc1SC(C(=O)Nc1ccc(F)cc1)c1ccccc1 (centres undefined)	-3.1	0.65	1%	i	-0.7	-1.5	0.7
CC12CC3CC(C)(C1)CC(C(O)CN1CCOCC1)(C3)C2 (centres undefined)	-2.2	0.65	·	i	0.4	3.0	-0.7
CNc1cncc(-c2cccc(C(=O)NC3CC3)c2)n1	2.5	·	·	i	·	·	-1.9
Nc1nc(Nc2ccccc2F)nc(NCc2ccco2)c1[N+](=O)[O-]	-1.9	0.66	-6%	i	-2.9	4.8	2.7
CC(C)COC(=O)c1ccc(NC(=O)C2C3CCC(C3)C2C(=O)O)cc1 (centres undefined)	·	0.7	3%	·	3.2	0.5	1.2
COc1ccccc1NS(=O)(=O)NC(=O)c1c(C)[nH]c2ccccc12	-1.6	0.72	·	i	0.2	2.7	0.4
O=C(c1cccs1)N(Cc1cccc(F)c1)C1CCS(=O)(=O)C1 (centres undefined)	0.5	0.7	26%	i	1.9	-3.1	2.3
Cc1ccc(O)c(NC(=O)CCC2CCCCC2)c1	·	0.73	-1%	·	7.6	-1.8	-2.3
COc1cc(C(=O)OCC(=O)N2CCCCC2C)ccc1OCc1c(C)noc1C (centres undefined)	-2.0	0.69	-2%	i	-2.1	0.5	1.5
Cc1sc2ncnc(Nc3ccccc3)c2c1C	·	0.67	-11%	·	0.7	2.7	-1.8
CCOc1ccccc1NC(=O)Nc1cnccn1	-2.6	0.69	0%	i	1.6	1.1	5.0
CCOc1ccc(N(CC(=O)NC2CCCCCC2)S(=O)(=O)c2c(C)noc2C)cc1	1.6	0.76	-3%	i	?	6.0	1.5
COc1ccc(NC(=O)C2Cc3c(-c4cccc(C(N)=O)c4)ccnc3O2)cn1 (centres undefined)	-5.6	·	·	i	·	·	1.2
COC(=O)C(Cc1ccc(O)cc1)NC(=O)CCc1nc2ccccc2s1 (centres undefined)	1.1	0.66	·	i	1.2	1.7	-0.9
CC(C)c1ccc(NC2CCCN(C(=O)c3ccncc3)C2)cc1 (centres undefined)	2.7	0.74	·	i	2.7	0.3	-2.5
Nc1nnn(CC(=O)N/N=C/c2ccncc2)n1	-0.3	·	10%	i	-2.5	·	1.6
CCCCOC(=O)CSc1nc(N)c(C#N)c(-c2ccc(OCC)cc2)c1C#N	·	0.75	-145%	·	?	-0.9	-1.6
Cc1onc(-c2c(Cl)cccc2Cl)c1C(=O)N=C(N)N1CCOCC1	0.9	0.64	-1%	i	5.2	7.0	-2.1
Cc1ccc(CNC(=O)CSc2nnc3n2CCCCC3)cc1	2.5	0.7	14%	i	·	0.2	3.5
O=C(NCc1cccc(C(F)(F)F)c1)C1CC(c2ccc(C(F)(F)F)cc2)=NO1 (centres undefined)	-2.5	0.68	-10%	i	?	0.1	-5.8
COC(=O)c1ccccc1NC(=O)COC(=O)c1ccco1	·	0.69	26%	·	2.2	0.3	1.9
COc1cc(C(=O)OCC(=O)Nc2cc(C)on2)ccc1OCc1ccccc1Cl	·	0.81	0%	·	-2.0	5.7	-7.7
O=C(c1ccc2c(=O)n3c(nc2c1)CCC3)N1CCN(S(=O)(=O)c2ccccc2Br)CC1	-1.1	0.67	·	i	·	-0.7	-2.2
Cc1ccnc(SCC(=O)NC2CCCCCC2)n1	-3.8	0.71	3%	i	·	-1.8	-1.4
Cc1c(Nc2nc(-c3ccc(Cl)cc3)cs2)c(=O)n(-c2ccccc2)n1C	·	0.67	·	·	-1.1	4.1	-0.8
COc1cccc(CN2CC(C(=O)N3CCOCC3)CCC2=O)c1 (centres undefined)	-1.6	0.7	·	i	2.9	2.3	-0.5
CC(C)(C)C1CCC(C(=O)NCCc2ccc(S(N)(=O)=O)cc2)CC1 (centres undefined)	0.8	0.65	·	i	-1.6	4.0	1.4
CC(C)(C)SCCSC1=CC(=O)CC(c2ccccc2)C1 (centres undefined)	1.2	0.63	11%	i	7.3	0.8	0.5
CC1(C(=O)NS(=O)(=O)Cc2cccc(Cl)c2)CCN1C(=O)Cc1ccc(Cl)cc1Cl (centres undefined)	1.1	·	·	i	·	·	-4.3
CCCCCCC(C)n1cc(C(C)=O)c(=O)[nH]c1=O (centres undefined)	·	0.67	-16%	·	-74	3.9	-0.5
COc1ccccc1CNC(=O)C(=O)c1cn(CC(=O)N2CCCC2)c2ccccc12	1.3	0.67	-7%	i	-2.6	4.9	-0.7
O=S(=O)(NCc1ccncc1)c1ccc(F)c(F)c1	-7.6	·	4%	i	·	·	-3.9
O=C(O)c1cccnc1SCc1cccc(Br)c1	-4.0	0.67	-9%	i	-0.6	-4.0	-4.2
Cn1nccc1C(=O)Nc1ccc2c(c1)OCCO2	1.8	0.69	·	i	0.6	0.5	1.2
COc1ccccc1OCCC(=O)OCC(=O)NCc1ccc(Cl)cc1	1.5	0.72	9%	i	5.4	-0.1	0.6
COc1ccc(CN2C(=O)CCC2(C)C(=O)NC2CCCC2)c(OC)c1 (centres undefined)	-0.3	0.74	1%	i	-0.3	3.8	2.1
Cc1onc(-c2ccccc2Cl)c1C(=O)NC1CCCCCC1	-4.5	0.68	3%	i	?	3.3	2.9
CCc1c(C)nc(N2CCN(c3ccccc3F)CC2)[nH]c1=O	-2.3	0.71	·	i	3.1	2.9	3.5
Cc1ccnc(NCn2nnc3ccccc32)c1	·	0.66	-3%	·	6.3	1.0	1.7

4 structures out of the list, sorted by heavy-atom count, lowest first.
SMILES	MLL AF4-AF9 inh	E coli growth	Vif A3G	FGF22 binding	RanGTP-Impb inh	UCH37 inh	HNF4A DNA FP
CCCCCCC(C)n1cc(C(C)=O)c(=O)[nH]c1=O (centres undefined)	·	0.67	-16%	·	-74	3.9	-0.5
CC(C)(C)C1CCC(C(=O)NCCc2ccc(S(N)(=O)=O)cc2)CC1 (centres undefined)	0.8	0.65	·	i	-1.6	4.0	1.4
COc1cc(C(=O)OCC(=O)Nc2cc(C)on2)ccc1OCc1ccccc1Cl	·	0.81	0%	·	-2.0	5.7	-7.7
COc1ccccc1CNC(=O)C(=O)c1cn(CC(=O)N2CCCC2)c2ccccc12	1.3	0.67	-7%	i	-2.6	4.9	-0.7

Additional structures follow.
SMILES	MLL AF4-AF9 inh	E coli growth	Vif A3G	FGF22 binding	RanGTP-Impb inh	UCH37 inh	HNF4A DNA FP
COc1ccc(OC)c(N/C(C)=C/C(=O)c2ccncc2)c1	15	0.63	0%	i	0.6	8.0	-2.9
O=C(NC1CCCC1)c1cc(COc2ccc3ncccc3c2)on1	·	0.67	4%	·	7.3	3.0	0.8
C=C1CCC2[C@](C)(CO)[C@H](O)CC[C@@]2(C)[C@@H]1C/C=C1\C(=O)OC[C@H]1O (some centres undefined)	2.7	0.71	·	i	-1.4	4.1	-0.6
COCCCNC(=S)N/N=C/c1ccc(O)cc1O	·	·	·	i	-0.9	·	-2.4
Cc1ccc(S(=O)(=O)N2CCC(C(=O)OCC(=O)N(C)C3CCS(=O)(=O)C3)CC2)cc1C (centres undefined)	0.1	0.68	3%	i	9.6	-0.4	1.2
COc1cccc(-c2nc(-c3cccc(C)c3)nc3cc(Cl)ccc23)c1	-1.8	·	·	i	·	·	-0.8
O=C(O)c1ccc2c(c1)C(=O)N(CCCCCCCN1C(=O)c3ccc(C(=O)O)cc3C1=O)C2=O	-1.3	·	-3%	i	3.7	·	2.3
CC(OC(=O)CCc1nc2ccccc2c(=O)[nH]1)C(=O)NC1CCCC1 (centres undefined)	2.2	0.71	12%	i	3.8	4.1	1.5
O=C1N(Cc2cccc(Cl)c2)C[C@@H]2C[C@@H](c3cccn3-c3nccs3)N3CCC[C@@]123	8.3	0.68	·	i	3.7	5.1	7.7
COc1ccc(/C=N/OCC(=O)NC(c2ccccc2)c2ccccc2)cc1OC	5.0	·	0%	i	0.7	·	1.9
O=C(O)c1cc2n(n1)CCN(Cc1ccccc1Cl)C2=O	-1.2	0.71	9%	i	2.3	1.2	-1.8
Cc1ccc(NC(=O)CSc2nnc(NC(=O)CN3CCOCC3)s2)cc1	·	0.63	0%	·	-2.8	1.4	-2.0
O=C(Nc1ccccc1F)c1ccc2ncsc2c1	-1.5	0.59	-6%	i	-0.9	4.0	3.5
Cc1nnn(C23CC4CC(CC(C(=O)NN)(C4)C2)C3)n1	·	0.69	-3%	·	-2.2	0.9	0.5
CCc1nc(-n2[nH]c(=O)c3ccccc3c2=O)c2c3c(sc2n1)CCCC3	·	0.7	·	·	3.5	2.2	-4.9
O=C(/C=C/c1ccc(S(=O)(=O)N2CCOCC2)cc1)N1CCN(c2ccc(F)cc2)CC1	13	0.64	?	i	6.3	2.2	0.6
O=c1[nH]c2ccccc2n1C1CCCCC1	·	0.66	0%	·	1.3	4.2	-3.4
O=C(/C=C/c1ccccc1Cl)c1ccc[nH]1	3.5	0.71	·	i	-2.6	4.9	0.9
COc1ccccc1NC(=O)c1cc2n(n1)C(C(F)(F)F)CC(c1ccc3c(c1)OCO3)N2 (centres undefined)	·	0.76	2%&3%	·	0.9	-2.3	0.6
CCn1c(SCC(=O)c2ccc3c(c2)OCCO3)nnc1C(C)C	·	0.59	27%	·	·	5.2	0.9

Among those listed so far, these have a CF3 group:
SMILES	MLL AF4-AF9 inh	E coli growth	Vif A3G	FGF22 binding	RanGTP-Impb inh	UCH37 inh	HNF4A DNA FP
O=C(NCc1cccc(C(F)(F)F)c1)C1CC(c2ccc(C(F)(F)F)cc2)=NO1 (centres undefined)	-2.5	0.68	-10%	i	?	0.1	-5.8
COc1ccccc1NC(=O)c1cc2n(n1)C(C(F)(F)F)CC(c1ccc3c(c1)OCO3)N2 (centres undefined)	·	0.76	2%&3%	·	0.9	-2.3	0.6

Further records
SMILES	MLL AF4-AF9 inh	E coli growth	Vif A3G	FGF22 binding	RanGTP-Impb inh	UCH37 inh	HNF4A DNA FP
C#Cc1ccc([C@@H]2C=C(C(=O)N3CCN(Cc4ccccc4)CC3)O[C@H](OCC)[C@H]2CCCO)cc1	3.8	·	-1%	i	?	3.8	9.4
CC(C)(C)c1ccc(C(=O)NNc2ccc(F)cc2F)cc1	-0.6	0.68	-10%	i	-0.9	4.3	2.0
Cn1c(-c2c(N)n(CCCc3ccccc3)c3nc4ccccc4nc23)nc2ccccc21	-6.4	0.77	6%	i	-19	-49	17
COc1cc(C(C#N)N2CCC(c3ccccc3)=N2)ccc1O (centres undefined)	1.2	0.7	?	i	6.9	1.8	2.8
CCn1ccnc1CN(C)Cc1c(C(=O)N2CCCCCCC2)nc2ccc(Cl)cn12	4.2	0.72	·	i	-0.1	4.1	-2.7
O=c1[nH]c2cc([N+](=O)[O-])cc(Cl)c2c2ccccc12	-1.3	·	-2%	i	·	·	-2.9
COc1nc(OCCNC(C)=O)nc(N(C)C)n1	·	0.76	7%	·	-3.2	-1.4	0.1
O=C(Nc1cccc2cccnc12)c1ccc(Cl)cc1Cl	0.5	0.68	-6%	i	0.4	-2.0	1.9
CCOC(=O)C1(C)CCCN(C(=O)CCc2ccccc2)C1 (centres undefined)	-0.5	·	·	i	·	·	-1.3
O=C(Nc1ccccc1Cl)OCc1cncs1	-2.2	0.67	·	i	0.8	1.3	2.2
CCN(c1ccccc1)S(=O)(=O)c1c[nH]c2ccc([N+](=O)[O-])cc12	7.1	0.67	-2%	i	7.6	3.1	-3.7
COc1cccc(N2C(=O)C3CCCN3C2c2ccc(N(C)C)cc2)c1 (centres undefined)	-1.9	0.69	10%	i	5.5	5.3	5.0
O=C(COC(=O)CSc1ccccc1)NC1CCS(=O)(=O)C1 (centres undefined)	-0.6	·	-5%	i	·	·	-2.9
CCN(C[C@H]1N[C@@](Cc2ccccc2)(C(=O)OC)[C@H]2C(=O)N(C)C(=O)[C@@H]12)C(=O)COc1ccccc1	0.2	0.69	-4%	i	·	0.4	-0.9

Source: PubChem BioAssay
